# Screens deposited in PubChem by National Center for Advancing Translational Sciences (NCATS).
# NS1 inh: qHTS Assay for Inhibitors of Influenza NS1 Protein Function. S. cerevisiae slowed by influenza A NS1, growth recovery by OD600. Potency, µM (doses to about 46.1 µM), inactives show at the highest dose activity, positive = more growth. actives 0.4% (n = 270,000). AID 2326, 2010; note: actives are rising curves; nearly all actives have a fitted effect of over 50% in size
#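 S. cerevisiae expressing influenza A NS1, grown in glucose, washed, then diluted 1:100 into pH 6.0 -URA galactose medium with 23 nl compound. Growth recovery read as OD600; NS1-free strain serves as control.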
# Cruzain noTriton: qHTS Assay for Promiscuous and Specific Inhibitors of Cruzain (without detergent) | purified cruzain, Z-FR-AMC fluorescence, no detergent | Cruzipain (Trypanosoma cruzi), P25779 | Potency, µM, without a hit: max response, negative = inhibition, hits mostly inhibitors | actives 2.3% (n = 200,000) | AID 1476, 2009; active = well fitted curve in the direction sought with a large enough effect; inconclusive = small, poorly fitted or top-dose-only effect, or another doubt; inactive = no such curve, though single readings can be large; an effect the other way counts as inactive or inconclusive;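 note: plate controls were enzyme without inhibitor for no effect and buffer without enzyme for full effect; nearly all actives have a fitted effect of over 40% in size; top concentration of the series not given in the record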
# Target sequence (P25779 123-467 limits assumed): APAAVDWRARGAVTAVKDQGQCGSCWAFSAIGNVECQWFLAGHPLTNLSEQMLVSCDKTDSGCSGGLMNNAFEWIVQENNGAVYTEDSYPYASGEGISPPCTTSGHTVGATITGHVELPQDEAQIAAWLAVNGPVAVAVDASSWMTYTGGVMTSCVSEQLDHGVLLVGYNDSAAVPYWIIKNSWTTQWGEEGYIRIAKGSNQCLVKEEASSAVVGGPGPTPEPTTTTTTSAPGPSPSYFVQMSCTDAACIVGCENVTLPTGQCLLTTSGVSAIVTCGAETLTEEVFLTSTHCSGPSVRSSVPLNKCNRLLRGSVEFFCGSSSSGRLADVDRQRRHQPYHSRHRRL
#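 Purified cruzain at 1.5 nM, pre-incubated 15 min with compound at room temperature in 100 mM sodium acetate pH 5.5, 5 mM DTT, 0.00005% Triton X-100. Reaction started with 2 uM Z-FR-AMC; AMC fluorescence increase over 60 s gives rate.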
# RE007 growth inh: qHTS Assay for Inhibitors of the HIV-1 protein Vpr; Potency, µM (highest dose often 92.2 µM), for inactives: at the highest dose activity change, negative = less growth; actives 0.21% (n = 360,000); AID 651644, 2012; S. pombe RE007 Vpr strain, BacTiter-Glo ATP luminescence, 24 h; control for the full effect not named in the record; active = well fitted falling curve with a large enough effect; inconclusive = small, poorly fitted or top-dose-only effect; inactive = no such curve, though single readings can be large or run the other way;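 note: % is set by controls: 0 for no effect and ±100 for the full control effect; nearly all actives have a fitted effect of over 50% in size; the assay follows cell death caused by Vpr and the record does not say whether a fall means rescue or toxicity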
#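 Fission yeast RE007 carrying one integrated HIV-1 vpr copy, seeded at OD 0.01 in PMG+AL medium with 23 nL pinned compound. Grown 24 h at 30 degrees; viability read by BacTiter-Glo luminescence after 5 min.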
# Cruzain inh Det: qHTS Assay for Promiscuous and Specific Inhibitors of Cruzain (with detergent); Cruzipain (Trypanosoma cruzi), P25779; purified cruzain, Z-FR-AMC fluorescence, 0.01% Triton; Potency, µM, for the others: max response, negative = inhibition, actives largely listed as inhibitors; actives 0.43% (n = 200,000); AID 1478, 2009; active = well fitted curve in the direction sought with a large enough effect; inconclusive = small, poorly fitted or top-dose-only effect, or another doubt; inactive = no such curve, though single readings can be large; an effect the other way counts as inactive or inconclusive;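 note: plate controls were neutral wells for no effect and buffer without enzyme for full effect; nearly all actives have a fitted effect of over 40% in size; top concentration of the series not given in the record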
#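 Sodium acetate buffer (100 mM, pH 5.5) containing 5 mM DTT and 0.01% Triton X-100 hosted 1.5 nM cruzain and test compound for 15 min at room temperature. Cleavage of 2 uM Z-FR-AMC was then tracked by fluorescence.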
# LASV entry inh: qHTS for Inhibitors of binding or entry into cells for Lassa Virus. Lassa virus pseudotype entry inhibition, cell reporter; control for the full effect not named in the record. Potency, µM (doses to about 37.9 µM), inactives show at the highest dose activity change, negative = inhibition, usual class: inhibitors. actives 1.2% (n = 300,000). AID 540256, 2011; active means well fitted inhibition curve with a large enough effect; inconclusive means small, poorly fitted or top-dose-only effect, or effect the other way; inactive means flat fitted curve, though single readings scatter; tested in HEK293 cells; note: % is set by controls: 0 for no effect and ±100 for the full control effect; nearly all actives have a fitted effect of over 50% in size; luciferase read-out
# Marburg entry inh: qHTS for inhibitors of binding or entry into cells for Marburg Virus; Marburg virus pseudotyped entry inhibition, cell reporter; control for the full effect not named in the record; about a third of the inactives were read at about 46 µM; Potency, µM (series often up to 37.8 µM), without a hit: at the highest dose activity change, negative = inhibition, most hits filed as inhibitors; actives 1.8% (n = 300,000); active = well fitted inhibition curve with a large enough effect; inconclusive = small, poorly fitted or top-dose-only effect, or effect the other way; inactive = flat fitted curve, though single readings scatter; tested in HEK293 cells; about a fifth of its hits are not listed in these tables; note: % is set by controls: 0 for no effect and ±100 for the full control effect; luciferase read-out
# SARS PLP yeast: qHTS of Yeast-based Assay for SARS-CoV PLP; S. cerevisiae expressing SARS-CoV PLpro, growth rescue; control for the full effect not named in the record; Potency, µM (highest dose often 32.9 µM), for the others: at the highest dose activity, positive = growth rescue; actives 0.19% (n = 330,000); note: 0% is about no effect; nearly all actives have a fitted effect of over 55% in size; growth read by luminescence after 48 h
# 2A StopGo: High Throughput Screening for Foot and Mouth Disease Virus Antivirals; human cells with a luciferase reporter of 2A StopGo recoding; control for the full effect not named in the record; Potency, µM (highest dose often 57.9 µM), for the others: top-dose signal change, negative = less light; actives 1.2% (n = 410,000); active = well fitted falling curve with a large enough effect; inconclusive = small, poorly fitted or top-dose-only effect; inactive = no such curve, though single readings can be large or run the other way; tested in HEK293T cells; note: % is set by controls: 0 for no effect and ±100 for the full control effect; nearly all actives have a fitted effect of over 45% in size; luciferase light after 4 h
# The depositor's hits bear a star; i = inactive; ? = inconclusive; / = not tested or not shown; & = joins results of further samples; [ ] = another dose, or the depositor's remark. Unless noted, calls come from the whole dose curve; as a rule, active means well fitted rising curve with a large enough effect; inconclusive means small, poorly fitted or top-dose-only effect; inactive means no such curve, though single readings can be large or run the other way. Potency is the fitted concentration of half-maximal effect.
SMILES,NS1 inh,Cruzain noTriton,RE007 growth inh,Cruzain inh Det,LASV entry inh,Marburg entry inh,SARS PLP yeast,2A StopGo
CN1C(=O)N(C)C2(c3ccccc3)NNC(N)=NC12c1ccccc1 (stereo unspecified),-3.0%,/,-1.0%,/,3.7%[46.1 µM],1.9%[46.1 µM],0.8%,-11.7%
Cc1cc2cc(CCNC(=O)c3ccc(S(=O)(=O)N4CCCC4)cc3)c(=O)[nH]c2cc1C,19.4%,/,-13.1%,/,-4.4%,?,/,-21.8%
Cc1ccc(CNC(=O)C2CC3Cn4c(nc5cc(Cl)c(Cl)cc54)C3N2C)o1 (stereo unspecified),-3.0%,/,2.2%,/,/,/,0.9%,-12.1%
O=C(Cn1cnc2c(oc3nc4c(cc32)CCCC4)c1=O)Nc1ccccc1,19.5%,/,-1.8%,/,/,/,-5.8%,6.0%
COc1cc(NC(=O)CC(C)S(=O)(=O)c2cc3c(cc2C)NC(=O)CO3)cc(OC)c1OC (stereo unspecified),5.0%,/,-1.4%,/,-4.0%[46.1 µM],14.0%[46.1 µM],1.0%,-9.1%
CC(C)(C)c1[nH]nc2c1C(c1ccoc1)C(C#N)=C(N)O2 (stereo unspecified),6.2%,-2.6%,-0.4%,1.0%,0.0%,-17.6%,2.0%,-18.2%
FC(F)(F)c1cc(Oc2ccc(Cl)cc2)nc(-c2ccccn2)n1,-10.6%,-4.2%,-7.3%,2.2%,26.5%,9.8%,-10.3%,-1.8%
CC(=O)n1cc(N(C(=O)CCl)c2ccccc2)c2ccccc21,-39.6%,/,2.9%,/,?,?,-2.9%,14.1µM*
COc1ccc(-c2nn(C)c(=O)c3ccccc23)cc1CNC(=O)c1ccco1,-1.3%,-2.5%,-2.4%,-8.3%,-14.0%,?,5.0%,0.0%
Cc1ccc2c(CNCC(C)c3ccccc3)c(C(=O)O)n(Cc3ccccc3C)c2c1 (stereo unspecified),/,-11.3%,/,-1.9%,2.0%[46.1 µM],/,/,-1.9%
CC1CC(NC(=O)CCn2c(=O)oc3ccccc32)CC(C)(C)C1 (stereo unspecified),-10.2%,6.8%,8.8%,-0.9%,/,/,-4.8%,-20.0%
CCOC(=O)C(=CNc1cccnc1Oc1ccc(C)c2c1CCC2)C(=O)OCC,2.5%,/,-2.5%,/,-7.0%,-16.4%,1.5%,?
O=S1(=O)NC(c2ccccc2)CC(CC2CCCCC2)O1 (stereo unspecified),-13.1%,/,-16.2%,/,/,/,-7.1%,37.8%[activator]
Oc1ccc(Br)cc1-c1cc(-c2ccco2)[nH]n1,-172.0%,-2.6%,?,-11.5%,-1.8%,-18.9%,-30.2%,5.0%
COC(=O)NC1(C(F)(F)F)C(=O)NC(C)=C1C(=O)OC (stereo unspecified),-0.6%,-4.5%,20.1%,6.7%,9.9%,0.8%[46.1 µM],0.6%,-18.8%
CCCCn1c(N)c(N(CCOC)C(=O)c2cc(-c3ccccc3Cl)nc3ccccc23)c(=O)[nH]c1=O,/,/,17.5%,/,1.3%,-3.3%,0.6%,-5.0%
O=C(NC(=S)Nc1ccc(Cl)cc1)c1ccccc1,9.5%,/,5.4%,/,?,?,0.2%,36.4%[activator]
COc1ccc(C2C(C#N)=C(C)NC3=C2C(=O)CC(C)(C)C3)cc1 (stereo unspecified),7.3%,13.4%,-9.9%,-11.7%,5.1%,1.3%[46.1 µM],6.9%,-3.3%
Nc1nc(-c2ccco2)cs1,0.5%,2.1%,1.9%,2.8%,-0.6%,4.3%,1.0%,24.4%
CCN/C=C(\C#N)S(=O)(=O)c1ccc(Br)cc1,-0.2%,/,1.8%,/,11.2%,5.4%,1.4%,16.0%
Cc1ccc(N2CC(c3nnc(NC(=O)c4ccco4)s3)CC2=O)cc1Cl (stereo unspecified),/,-4.8%,/,-2.3%,3.0%[46.1 µM],2.6%[46.1 µM],/,-14.4%
COC(=O)C1=C(CSc2nc3ccccc3s2)NC(=O)NC1c1ccc(F)cc1 (stereo unspecified),-2.6%,?,2.9%,-6.9%,-7.6%&-22.4%,-26.2%[46.1 µM],-35.2%,?
COc1cc2c(cc1OC)C(c1cc(Br)ccc1F)N(C(=O)CCl)CC2 (stereo unspecified),-10.2%,/,/,/,/,-4.2%,-0.6%,28.2µM*
CCN(CC)C(=O)C(=O)Nc1ccc(F)c(Cl)c1,-0.2%,/,3.2%,/,15.1%[46.1 µM],9.3%[46.1 µM],-0.6%,35.9%[activator]
CC(Oc1ccccc1F)C(=O)NNC(=O)c1cc2ccccc2o1 (stereo unspecified),/,/,25.3%,/,-5.7%,9.5%[46.1 µM],1.3%,10.5%

# Three compounds already listed, ordered by SMILES length, descending.
SMILES,NS1 inh,Cruzain noTriton,RE007 growth inh,Cruzain inh Det,LASV entry inh,Marburg entry inh,SARS PLP yeast,2A StopGo
COc1cc(NC(=O)CC(C)S(=O)(=O)c2cc3c(cc2C)NC(=O)CO3)cc(OC)c1OC (stereo unspecified),5.0%,/,-1.4%,/,-4.0%[46.1 µM],14.0%[46.1 µM],1.0%,-9.1%
CN1C(=O)N(C)C2(c3ccccc3)NNC(N)=NC12c1ccccc1 (stereo unspecified),-3.0%,/,-1.0%,/,3.7%[46.1 µM],1.9%[46.1 µM],0.8%,-11.7%
CCN/C=C(\C#N)S(=O)(=O)c1ccc(Br)cc1,-0.2%,/,1.8%,/,11.2%,5.4%,1.4%,16.0%

# (cont.)
SMILES,NS1 inh,Cruzain noTriton,RE007 growth inh,Cruzain inh Det,LASV entry inh,Marburg entry inh,SARS PLP yeast,2A StopGo
Cc1ccc(C(=O)N[C@H](C(=O)OCC(=O)Nc2cccc(S(N)(=O)=O)c2)C(C)C)cc1,-3.9%,/,5.5%,/,2.5%,2.3%[46.1 µM],-0.9%,-15.6%
Cc1ccc(SCc2cn3c(C)csc3n2)cc1,-100.1%,2.2%,i,-2.4%,?,?,-14.9%,/
O=C(Cc1ccc(Br)cc1)NC1CCSC1=O (stereo unspecified),/,/,1.7%,/,-2.6%,?,-1.7%,-7.1%
O=c1[nH]c(C2CCCN(S(=O)(=O)c3ccccc3)C2)nc2c1nnn2Cc1ccc(OC(F)(F)F)cc1 (stereo unspecified),1.0%,-14.3%,7.3%,-1.3%,4.6%[46.1 µM],0.4%&0.4%[46.1 µM],-0.6%,-10.4%&-14.2%
Cc1ccc(NS(=O)(=O)c2ccc(C(=O)NCC(c3ccco3)N(C)C)cc2)cc1 (stereo unspecified),1.3%,/,-13.6%,/,11.1%[46.1 µM],-7.6%[46.1 µM],-1.5%,2.2%
NC(=O)c1ccc(-c2ncc(-c3ccccc3)o2)cc1,-8.3%,?,6.8%,40.8%[activator],?,?,-8.2%,-11.4%
CN(CCO)c1nc(N)c2c(N)nc3c(c2c1C#N)CC(=O)N3C1CCCC1,?,6.3%,/,?,/,-2.3%,3.6%,/
CCc1noc(C)c1C(=O)N(CC(C)C)c1c(N)n(Cc2ccccc2)c(=O)[nH]c1=O,/,/,-0.9%,/,0.3%,-0.4%,-0.3%,-14.3%
Cc1cnc(C(=O)Nc2ccccc2C(=O)N2CCOCC2)cn1,4.7%,-8.6%,-1.7%,5.0%,-19.6%,11.5%[46.1 µM],-0.7%,-0.1%
COc1ccc(-c2cc(-c3nnc(COC(=O)c4ccc(O)cc4)o3)c3ccccc3n2)cc1OC,8.5%,/,-14.7%,/,?,?,-0.3%,0.0%
O=C(CSc1ncn[nH]1)CSc1ncn[nH]1,/,/,-14.1%,/,-3.7%,1.8%[46.1 µM],1.1%,-11.7%
Cc1cc(-c2onc(C)c2C(=O)Nc2ccc(C(F)(F)F)cc2)no1,-0.4%,/,-8.6%,/,3.0%,0.2%[46.1 µM],0.6%,-2.7%
O=S(=O)(c1ccc(N2CCOCC2)nc1)N(Cc1ccccn1)Cc1ccccn1,-5.7%,/,-5.5%,/,14.4%,-1.0%[46.1 µM],0.5%,-3.5%
CCOC(=O)c1ccc(N2C(=O)c3n[nH]c(C)c3C2c2cccc(Br)c2)cc1 (stereo unspecified),/,-14.3%,/,4.1%,?,?,/,-28.6%
COc1cc(C(=O)NCc2nnc(SCC(=O)Nc3cc(C)on3)o2)cc(OC)c1OC,/,/,3.7%,/,-6.2%,1.6%[46.1 µM],-1.4%,10.0%
Cc1cc(Cl)ccc1OCC(=O)NCCOc1nc(N2CCCCC2)nc(N2CCOCC2)n1,-1.9%,?,-1.1%,-4.9%,-13.7%,8.1%,-4.5%,0.0%
O=C(O)CCCC(=O)Nc1ccccc1SCCS(=O)(=O)c1ccc(Cl)cc1,-7.2%,/,0.5%,/,?,-13.0%,5.1%,-22.3%
O=C(NCC1CCCO1)c1ccc(NC(=O)C2CC=CCC2C(=O)O)cc1 (stereo unspecified),2.5%,9.4%,17.8%,2.6%,0.3%,?,/,-6.0%
CCC1(c2ccccc2)NC(=S)N(c2cccc(C)c2C)N1 (stereo unspecified),6.1%,1.5%,-4.9%,-5.4%,-26.4%,12.7%,3.16µM*,23.8%
COc1ccc(Cc2nc3ccc(C(=O)NCCc4ccncc4)cc3o2)cc1OC,14.5%,/,-3.9%,/,/,/,2.2%,?
CCN(C(=O)CN1CCN(S(=O)(=O)c2ccccc2C(F)(F)F)CC1)c1c(N)n(Cc2ccccc2)c(=O)[nH]c1=O,-14.2%,26.7%,26.5%,-0.5%,9.3%&5.0%,?,24.2%,-12.8%
Cc1csc(NC(=O)CSC2=NS(=O)(=O)c3cc(F)ccc3N2)n1,/,/,10.5%,/,-7.8%,2.3%,-3.8%,-11.6%
CC(C(=O)Nc1ccccc1C(=O)N1CCOCC1)N(c1ccc(Cl)cc1)S(C)(=O)=O (stereo unspecified),/,/,-14.6%,/,6.2%,10.9%[14.2 µM],-0.1%,-10.9%
